Assay outcomes deposited in PubChem by PCMD.
RmlC RmlD mix: RmlC and RmlD coupled enzyme inhibitors, primary screen, biochemical, 384-well, compound mixtures, retest; RmlC/RmlD coupled enzyme inhibition, 384-well mixture HTS; 110,000 compounds, 0.39% hits; AID 1532, 2009; inhibition, % at 5.5 µM; in the data active means inhibition above about 30%, passing the limit was not always enough; only retested compounds are shown here; further: strong numbers were not always called active
RmlC RmlD mix retest: recorded beside RmlC RmlD mix, whose call it bears; inhibition, %; measured here: mean retest inhibition;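 single compounds in two wells; values far above 100% likely come from compound fluorescence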
The depositor's hits bear a star; i = inactive; nt = no result given. An excerpt; the hit share may differ from the screen's.

[1] CN(C)S(=O)(=O)c1ccc(C(=O)NCCOc2ccccc2)cc1
[2] Cc1onc(-c2ccccc2Cl)c1C(=O)Nc1ccc(-c2cn3cccnc3n2)cc1
[3] O=C(Nc1ccc2nn(-c3ccccc3)nc2c1)c1ccc2c(c1)OCO2
[4] CN(C)CCNC(=O)c1ccccc1
[5] CCc1cc2c(SCC(=O)c3ccccc3)ncnc2s1
[6] COc1ccc(/C=N/NC(=O)Nc2cccc3nsnc23)c(OC)c1
[7] Cc1ccc2c(CSc3nc4ccccc4c(=O)n3CCCO)cc(=O)oc2c1C
[8] CCc1nc2ccccc2n1Cc1cc(=O)n2cc(C)ccc2n1
[9] CCCC(=O)Nc1nnc(-c2cccc(OCC)c2)s1
[10] CCn1c(SCC(=O)c2cc(OC)ccc2OC)nnc1-c1ccncc1
Screen / compound no.	1	2	3	4	5	6	7	8	9	10
RmlC RmlD mix	53	48	86	32	65	39*	36	i	48	115
RmlC RmlD mix retest	0	-246	39	-18	-4	nt	3	4	-12	4

[11] CCCC(c1nnnn1CCc1ccccc1)N1CCN(C2CCCC2)CC1 (stereo not given)
[12] COc1ccc(Br)cc1C(=O)NCc1cccnc1
[13] Cc1cc(=O)n(CCO)c(O)c1C#N
[14] Cc1ccccc1C(=O)N1CCC(C(N)=O)CC1
[15] COc1cccc(Nc2nc3ccccc3nc2NS(=O)(=O)c2cccs2)c1
[16] Cc1cc(C)n(-c2nc(Nc3ccccc3C)nc(-n3nc(C)cc3C)n2)n1
[17] COc1ccc(-c2cc3nc(C)c(CCC(=O)NC(C)CCc4ccco4)c(C)n3n2)c(OC)c1 (stereo not given)
[18] NC(=O)c1nn(-c2ccccc2)nc1N
[19] Cc1ccccc1-n1c(=O)c(C#N)cc2c(=O)n3ccccc3nc21
[20] CCn1c(-c2cccnc2Cl)nc2cc(Cl)c(Cl)cc21
Screen / compound no.	11	12	13	14	15	16	17	18	19	20
RmlC RmlD mix	161	107	61	46	62	33	64	43*	123	41
RmlC RmlD mix retest	6	-9	13	-13	9	-1	-10	58*	100	-1

An excerpt of these results, in markdown:
| no. | smiles | RmlC RmlD mix | RmlC RmlD mix retest |
| --- | --- | --- | --- |
| 14 | Cc1ccccc1C(=O)N1CCC(C(N)=O)CC1 | 46 | -13 |
| 15 | COc1cccc(Nc2nc3ccccc3nc2NS(=O)(=O)c2cccs2)c1 | 62 | 9 |
| 16 | Cc1cc(C)n(-c2nc(Nc3ccccc3C)nc(-n3nc(C)cc3C)n2)n1 | 33 | -1 |
| 17 | COc1ccc(-c2cc3nc(C)c(CCC(=O)NC(C)CCc4ccco4)c(C)n3n2)c(OC)c1 (stereo not given) | 64 | -10 |

(cont.)
[21] COc1cccc(/C=N/Nc2ncnc3scc(-c4ccccc4)c23)c1OC
[22] CCn1c(SCC(=O)Nc2cccc(OC)c2)nnc1-c1ccc(Cl)cc1
[23] CC(C)(C)C1CCc2c(sc(NC(=O)c3ccco3)c2C(N)=O)C1 (stereo not given)
[24] COc1cc(C2Nc3ccccc3C(=O)N2c2ccccc2)ccc1O (stereo not given)
[25] Cc1n[nH]c(C)c1Sc1ccccc1N=Cc1cc(Cl)cc([N+](=O)[O-])c1O
[26] CCN(CC)C(=O)CSc1nnc(CCN)o1
[27] COC(=O)c1ccc(/C=N/NC(=O)CC(=O)NCC(C)C)cc1
[28] Cc1ccc(-n2nc(C)c3cc(C(=O)O)sc32)cc1
[29] Oc1ccc(C(=S)N2CCCCCC2)cc1
[30] CN(C)Cc1c(O)c(Cl)cc2c3c(c(=O)oc12)CCCC3
Screen / compound no.	21	22	23	24	25	26	27	28	29	30
RmlC RmlD mix	104	i	64*	31	50	93	31	i	64	140*
RmlC RmlD mix retest	-6	-10	nt	-23	4	1	-6	-5	-5	112*

Compounds from the list above containing a furan ring, fused or not (two):
[17] COc1ccc(-c2cc3nc(C)c(CCC(=O)NC(C)CCc4ccco4)c(C)n3n2)c(OC)c1 (stereo not given)
[23] CC(C)(C)C1CCc2c(sc(NC(=O)c3ccco3)c2C(N)=O)C1 (stereo not given)
Screen / compound no.	17	23
RmlC RmlD mix	64	64*
RmlC RmlD mix retest	-10	nt
